# Tgondii IFNg: T. gondii growth inhibition with IFN-gamma, primary screen, cell-based; Toxoplasma gondii growth in IFN-gamma-treated host cells; hits give low values; reference of the scale not given here; activity change, negative = inhibition, %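 (about 20 µM by stock and volumes)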; 69,000 tested, 3.8% active;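 active means below -70%; inconclusive means fit judged invalid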;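 further: host cells are HeLa cells infected with Toxoplasma gondii; parasite growth read as luciferase light; one replicate is shown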
# * marks the source's active call; other numbers are inactive results; i = inactive; ? = inconclusive. Not all compounds are listed. The share of hits here may be higher or lower than overall.
# A first look:
SMILES,Tgondii IFNg
Cc1nc(OCC(=O)Nc2cccc(Cl)c2C)c2ccccc2n1,-1
COCc1cnc2n1CCN(Cc1ccsc1)C2C (stereo not given),-22
COc1ccc(NCc2n[nH]c(=S)n2-c2ccccc2)cc1,i
Cc1cc(C)c(NC(=O)C(=O)NCCc2csc(-c3cccc(F)c3)n2)c(C)c1,-80*
Cc1cc(-c2ccnc3c2ccn3C)c(=O)[nH]c1C,-4
CN(C)C(CNC(=O)Cc1cccc2cccnc12)c1cccc(Cl)c1 (stereo not given),6

# The list itself, repeating the preview:
SMILES,Tgondii IFNg
Cc1nc(OCC(=O)Nc2cccc(Cl)c2C)c2ccccc2n1,-1
COCc1cnc2n1CCN(Cc1ccsc1)C2C (stereo not given),-22
COc1ccc(NCc2n[nH]c(=S)n2-c2ccccc2)cc1,i
Cc1cc(C)c(NC(=O)C(=O)NCCc2csc(-c3cccc(F)c3)n2)c(C)c1,-80*
Cc1cc(-c2ccnc3c2ccn3C)c(=O)[nH]c1C,-4
CN(C)C(CNC(=O)Cc1cccc2cccnc12)c1cccc(Cl)c1 (stereo not given),6
Cn1cc(CN2CCC3(CC2)CCN(Cc2ccccn2)C3=O)cn1,1
C[C@@H]1CCCCO[C@H](CN(C)C(=O)c2ccncc2)[C@H](C)CN([C@H](C)CO)C(=O)c2cc(NC(=O)CCC(F)(F)F)ccc2O1,138
O=C(C[C@@H]1CC[C@H]2NC[C@H](O)COC[C@@H]2O1)NCc1ccc2c(c1)OCO2,25
COc1ccc(NC(=O)Cn2c(=O)cc(-c3nc(C(C)C)no3)c3ccccc32)cc1,-66
CC(=O)N1CCOC2CCN(Cc3ccc[nH]3)CCC21 (stereo not given),-47
CC(C)c1cc(NCc2cccnc2Oc2ccc(F)cc2F)ncn1,-33
O=C1CO[C@H]2CN(C(=O)CCc3ccccc3)C[C@@H]2N1,-17
Cc1cnc(N2C[C@H]3C[C@H](C(=O)NCc4cccnc4)[C@@H](C2)O3)nc1,178
COc1ccc2c(=O)c(CC(=O)O)coc2c1,14
CC(C)(C)c1ccc2[nH]c3c(c2c1)CCCC3=O,-84*
Cn1cc(Cl)c(-c2noc(-c3ccccc3C(F)(F)F)n2)n1,70
O=C(Nc1cc(F)ccc1F)N[C@H]1CC[C@@H](CC(=O)N2CCc3ccccc3C2)O[C@H]1CO,-36
CCCN1C(=O)CCc2cc(NS(=O)(=O)c3ccc(Cl)c(Cl)c3)ccc21,-52
CCCOC1CCCN(Cc2ccccc2C(=O)O)C1 (stereo not given),6
COc1ccc(-c2cnc3n2CCN(C)C32CCN(C3CCCC3)CC2)cc1,6
COc1cc(N2CCC3(CC2)CNC(=O)CO3)ncn1,-22
CCCCS(=O)(=O)N1CCC2(COCc3c(C)nc(N(C)C)nc32)C1 (stereo not given),-35
CCOC(=O)c1nc(NCCCN2CCN(c3cc(Cl)ccc3C)CC2)c2ccccc2n1,-50
N[C@@H]1CC[C@@H](NC(=O)c2cc(=O)n(-c3ccccc3)[nH]2)C1,10
COCCN1C(=O)C(c2ccccc2)CC12CCN(Cc1nccs1)CC2 (stereo not given),70
Cc1ncsc1C(=O)N1CCCC1c1nnc2n1CCN(C(=O)OC(C)(C)C)C2 (stereo not given),4
COc1ccc2c3c([nH]c2c1)[C@@H](CO)N(C(=O)CN(C)C)CC31CN(C(=O)c2cccnc2)C1,13
COCCN1Cc2ccccc2C2(CCN(C(=O)c3ccco3)CC2)C1,-4
CCCc1cc(CNC(=O)c2oc3c(C)cccc3c2C)on1,55
C=CCN1CC(C(=O)N2CCC(c3cc(C(C)C)n[nH]3)CC2)CC1=O (stereo not given),18
CC(=O)N1CCc2c(nc(-c3ccccn3)nc2N2CC=CC2)C1,-3
O=C1CC[C@@H](CN(Cc2ccccc2)Cc2cn[nH]c2-c2cc3ccccc3o2)N1,-4
O=C(C[C@@H]1CC[C@H]2[C@@H](COC[C@H](O)CN2Cc2nccs2)O1)NCc1ccccc1Cl,-38
Cc1ccc2nc3sc(C#N)c(N)c3cc2c1,101
CC1CCN(c2ncnc3c2cnn3CC(=O)NC2CCCCCC2)CC1,-64
CC1=CC[C@@H]2CN(c3cncc(C(=O)N4CCCC4)n3)C[C@@H]2C1,0
CC(Nc1nc(CCN)nc2ccccc12)c1ccccc1C(F)(F)F (stereo not given),-17
Nc1ccc(S(N)(=O)=O)cc1N,-14
CNC(=O)[C@@]12CCC3(CCN(C(=O)NCc4cccc(OC)c4)CC3)[C@H]1CN(C(C)=O)C2,-28
CCC(C)(C)NC(=O)Cn1ncc2c(N3CCN(c4ccccn4)CC3)ncnc21,86
Cc1nc(-c2ccc(F)cc2)sc1-c1ccc(SCc2c(F)cccc2Cl)nn1,-33
C=CCn1c(=O)c(C(=O)Nc2nccc(C)n2)c(O)c2ccccc21,28
CCOc1ncnc2c1CCN(C(=O)c1ccc3[nH]ccc3c1)CC2,-5
CCCn1ncc(C(=O)N2CCCC(Cc3ccc(C(=O)O)cc3)C2)c1C (stereo not given),-1
CCc1nc(SCC(=O)N(C)Cc2nc3ccc(Cl)cc3[nH]2)n[nH]1,-1
CC(C)CN1CCC(CNC(=O)c2ccc(-c3ccsc3)nc2)C1 (stereo not given),-2
COc1ccc(CCC(C)NC(=O)c2ccc(C(C)(C)C)[nH]c2=O)cc1 (stereo not given),-33
CCN(CC)c1ncnc2c1cnn2CC(=O)NCc1cccnc1,-26
C[C@@H]1CN([C@@H](C)CO)C(=O)c2cccc(NS(=O)(=O)c3ccc(F)cc3)c2O[C@H]1CN(C)Cc1ccc(Cl)c(Cl)c1,-64
Nc1ccc2c(c1)OCCOCCOCCOCCO2,-6
CCC(C)n1c(Cc2ccc(O)cc2)n[nH]c1=O (stereo not given),9
Cc1ccc(CN2C[C@H](OCCN(C)C)[C@@H]3COC[C@@H]32)o1,0
C=CCNc1ccccc1C(=O)N1CCN(CCS(C)(=O)=O)CC1,-1
O=C(CC1CCS(=O)(=O)C1)N[C@H]1C2CCCCC2[C@@H]1c1ccccc1 (stereo not given in full),-25
N#C[C@H]1[C@H](c2ccc(-c3cccc(F)c3)cc2)[C@H](CO)N1c1nc(-c2ccccc2)cs1,15
NC(=O)c1cc(-c2cc(NCc3ccccn3)nc3[nH]ccc23)cs1,-47
O=C(C[C@@H]1CC[C@@H]2NC[C@H](O)COC[C@H]2O1)NCc1ccc2c(c1)OCO2,15
Cc1nc(C)n(CC(=O)N2CCCC[C@H]3CN(C(=O)c4cscn4)C[C@H]32)n1,49
CCOCC(=O)NCC1Cn2nnc(-c3cnn(C)c3)c2CO1 (stereo not given),-1
# Next section
SMILES,Tgondii IFNg
CC1CCCCN1C(=O)c1cc(-c2cnc(-c3ccccc3)nc2)cn1C (stereo not given),i
CN1CC(C(=O)N2CCc3c(c(C(=O)O)nn3CCCc3ccccc3)C2)CC1=O (stereo not given),3
OC[C@@H]1[C@@H]2c3ccccc3NC[C@@H]2N1Cc1ccccc1Cl,-12
COCC1CN(Cc2ccoc2)Cc2cn(C)nc21 (stereo not given),10
COc1ccc(-c2nc(CCNC(C)=O)cs2)cc1,i
CC(C)(C)CN1CC2CN(C(=O)Nc3ccccc3)CC21 (stereo not given),-38
COc1ccccc1OC1CN(C(=O)c2cccc(C#CC(C)(C)O)c2)C1,-8
Cc1ccc(-c2nc(CNC(=O)CCN3Cc4ccccc4C3=O)no2)cc1,-3
Cc1ccc(NC(=O)Cn2c(=O)cc(C(=O)N3CCOCC3)c3ccccc32)cc1C,7
CCO[C@H]1CN(C(=O)NCc2ccccc2)[C@H]2COC[C@@H]12,-49
CN(Cc1n[nH]c2c1CCCC2)Cc1cc2ccccc2[nH]c1=O,-1
COc1cc(-c2nc(Cn3c(=O)c4c(C)cc(C)nc4n(C)c3=O)c(C)o2)cc(OC)c1OC,-33
CN(Cc1cc2cc(F)ccc2[nH]1)Cc1nccn1C,0
FC(F)(F)c1cccc(OCCc2cc(C3CCCN3Cc3ccccn3)n[nH]2)c1 (stereo not given),48
COc1ccc(S(=O)(=O)N2CCC[C@@H]2C(=O)NCCc2csc(C)n2)cc1OC,13
CCn1c(CC2CCN(C(=O)C(C)Cn3cccn3)CC2)n[nH]c1=O (stereo not given),5
C[C@@H]1CN([C@@H](C)CO)C(=O)c2c(c3ccccc3n2C)-c2ccccc2CO[C@H]1CN(C)C(=O)[C@H](Cc1ccccc1)N(C)C,-51
Cc1ccc(C2=NC3(CCN(CC(=O)Nc4ccc(F)c(Cl)c4)CC3)NC2=O)cc1C,0
CC(=O)Nc1ccc(C#CC2(NC(=O)CNC3CCS(=O)(=O)C3)CCCCC2)cn1 (stereo not given),100
CCOC(=O)CSc1nc(-c2cccs2)cn1-c1ccc(C)cc1,59
O=S(=O)(c1ccccc1)N1N=C2CCCCC2C1(O)C(F)(F)F (stereo not given),0
O=c1n(CCn2cncn2)nc(C2CCCNC2)n1-c1ccccc1 (stereo not given),29
O=C(C1CCC1)N1CC(=O)N2[C@H](CO)[C@@H](c3ccc(Br)cc3)[C@H]2C1,-17
Cc1ccc(OCCN(C)C)c(NC(=O)c2noc3c2CC(C(C)(C)C)CC3)c1 (stereo not given),-74*
CS(=O)(=O)N1CCN(c2ccc3ccc(C(=O)NC4CCCC4)cn23)CC1,2
O=C(CSc1nc2ccccc2n1Cc1ccccc1F)NCc1cccs1,-5
O=C(NCCc1csc(-c2cccc(F)c2)n1)C1CCCCC1,-36
CN(C)C(=O)C[C@]12COC[C@H]1CN(Cc1ccc3ccccc3n1)C2,-5
CCn1c(=O)c(C(=O)Nc2ccncc2)c(O)c2ccccc21,-53
Cc1oc(-c2ccccc2)nc1CSc1nc2c(c(=O)[nH]1)CN(Cc1ccccc1)CC2,-36
c1ccc2c(c1)NCC2CN1CCOCC1 (stereo not given),-51
O=C(c1ccc(Oc2ccccc2)cc1)C1CCCN(C(=O)CCn2cccn2)C1 (stereo not given),-21
COCCN1C(=O)CCc2cc(NC(=O)c3ccc(C)cc3C)ccc21,34
O=C1NCC(c2ccc(Cl)cc2)Cc2[nH]c(Cc3cccnc3)nc21 (stereo not given),-44
Cc1ccc(C(=O)c2ccc(Br)cc2)cc1S(N)(=O)=O,9
O=C(c1cccnc1)N1CCC(c2cccc(Cc3ccccc3F)n2)CC1,-41
C[C@@H]1CN([C@@H](C)CO)C(=O)c2cc(-c3cccc(C(=O)N(C)C)c3)cnc2O[C@H]1CN(C)C(=O)Cc1ccccn1,43
COc1ccc(CSCCN)cc1Cl,-6
Cc1ccc(NC(=O)Cn2ncc3c(N4CCN(c5ccccc5)CC4)ncnc32)cc1Cl,-54
Cc1ccc(CC23CN4CC(CN(C4)C2)C3=O)c(C)c1,-6
Cc1cc(C)n(CC(O)COc2ccc(C(C)C)c(C)c2)n1 (stereo not given),11
Cc1cc(C(=O)N(C)Cc2snnc2C)nc(C)n1,-36
COCCN1CCO[C@H]2CN(S(=O)(=O)c3cn(C)cn3)CC[C@@H]2C1,-43
N#CCN1CCC(n2cccn2)c2cc(NC(=O)c3ccco3)ccc21 (stereo not given),57
CCOc1ccc(S(=O)(=O)Nc2ccccn2)cc1C,-37
Cc1ccc(NC(=O)C(=O)NCCc2csc(-c3cccc(F)c3)n2)cc1F,27
Cn1nnnc1SCc1ccccc1F,-5
CO[C@@H](CN(C)Cc1ccc2c(c1)OCO2)[C@H](C)CN(C(=O)Nc1ccc(F)cc1)[C@@H](C)CO,20
CN1C(=O)c2cc(NC(=O)Cc3cccs3)ccc2OC[C@@H]2O[C@H](CC(=O)NCC3CCCCC3)CC[C@@H]21,-78*
Cc1cc(C)n(-c2ccc(C(=O)N3CCCC(N(C)C)CC3)cc2)n1 (stereo not given),-1
CCc1cc(CN(C)Cc2cccc(OC)c2O)on1,2
CCCn1cc(C(=O)N(Cc2ccccn2)CC2CCCO2)c(C)n1 (stereo not given),-1
Cc1ccc(CSC2=Nc3ccccc3C3=NC(CC(=O)NCc4cccs4)C(=O)N23)c(C)c1 (stereo not given),-49
COc1cc(CN2CCC(O)(c3ccccc3)C2)ccc1OCCN1CCOCC1 (stereo not given),25
O=C(COc1ccc2c(c1)OCO2)N1CCN(C(=O)c2ccco2)CC1,16
O=C(C[C@@H]1C=C[C@@H](NS(=O)(=O)c2ccccc2)[C@H](CO)O1)NCCN1CCCCC1,-19
CC(=O)Nc1ccc(-c2ccc(S(C)(=O)=O)cc2)c2cccnc12,2
CNC(=O)c1ccc(OC)c(-c2cc(F)ccc2C)c1,?
COc1nccnc1-c1cccc(C(C)N2CCCC2)c1 (stereo not given),7
COc1ccc(-n2c(=O)n(Cc3nc(-c4ccccc4OC)oc3C)c(=O)c3cccnc32)cc1,11

# Reformatted: 2 of the compounds above.
Cc1cc(C)n(CC(O)COc2ccc(C(C)C)c(C)c2)n1 (stereo not given)
  Tgondii IFNg: 11

Cc1cc(C(=O)N(C)Cc2snnc2C)nc(C)n1
  Tgondii IFNg: -36

# The main list resumes, repeating the five entries before the break.
SMILES,Tgondii IFNg
O=C(C[C@@H]1C=C[C@@H](NS(=O)(=O)c2ccccc2)[C@H](CO)O1)NCCN1CCCCC1,-19
CC(=O)Nc1ccc(-c2ccc(S(C)(=O)=O)cc2)c2cccnc12,2
CNC(=O)c1ccc(OC)c(-c2cc(F)ccc2C)c1,?
COc1nccnc1-c1cccc(C(C)N2CCCC2)c1 (stereo not given),7
COc1ccc(-n2c(=O)n(Cc3nc(-c4ccccc4OC)oc3C)c(=O)c3cccnc32)cc1,11
CC[C@H](Cn1c(=O)oc2cccnc21)NC(=O)c1ccc(F)cc1F,45
COc1ccc(NS(=O)(=O)c2ccc3[nH]c(=O)ccc3c2)cc1Cl,63
COc1ccc(-c2nc(Nc3ccc(C)c(Cl)c3)c3ccccc3n2)cc1,-32
Cc1cccc(OCC(=O)NCCc2csc(-c3ccc(Cl)cc3)n2)c1,7
O=C1CCc2cc(S(=O)(=O)Nc3ccc(Cl)cc3)cc3c2N1CC3,-17

# From PubChem
